nsP2pro primary – Primary qHTS for inhibitors of NSP2Pro chikungunya virus (CHIKV) | FRET peptide cleavage, nsP2pro, fluorescence 1 h | Potency, µM (titrated, usually from 24.9 µM), inactives show at the highest dose activity change, negative = inhibition, hits mostly inhibitors | actives 1.1% (n = 31,000); active means well fitted inhibition curve with a large enough effect; inconclusive means small, poorly fitted or top-dose-only effect; inactive means no such curve, though single readings can be large or run the other way; also: nearly all actives have a fitted effect of over 60% in size; a reference inhibitor and vehicle were the controls
Target sequence (Q8JUX6 whole entry, looked up): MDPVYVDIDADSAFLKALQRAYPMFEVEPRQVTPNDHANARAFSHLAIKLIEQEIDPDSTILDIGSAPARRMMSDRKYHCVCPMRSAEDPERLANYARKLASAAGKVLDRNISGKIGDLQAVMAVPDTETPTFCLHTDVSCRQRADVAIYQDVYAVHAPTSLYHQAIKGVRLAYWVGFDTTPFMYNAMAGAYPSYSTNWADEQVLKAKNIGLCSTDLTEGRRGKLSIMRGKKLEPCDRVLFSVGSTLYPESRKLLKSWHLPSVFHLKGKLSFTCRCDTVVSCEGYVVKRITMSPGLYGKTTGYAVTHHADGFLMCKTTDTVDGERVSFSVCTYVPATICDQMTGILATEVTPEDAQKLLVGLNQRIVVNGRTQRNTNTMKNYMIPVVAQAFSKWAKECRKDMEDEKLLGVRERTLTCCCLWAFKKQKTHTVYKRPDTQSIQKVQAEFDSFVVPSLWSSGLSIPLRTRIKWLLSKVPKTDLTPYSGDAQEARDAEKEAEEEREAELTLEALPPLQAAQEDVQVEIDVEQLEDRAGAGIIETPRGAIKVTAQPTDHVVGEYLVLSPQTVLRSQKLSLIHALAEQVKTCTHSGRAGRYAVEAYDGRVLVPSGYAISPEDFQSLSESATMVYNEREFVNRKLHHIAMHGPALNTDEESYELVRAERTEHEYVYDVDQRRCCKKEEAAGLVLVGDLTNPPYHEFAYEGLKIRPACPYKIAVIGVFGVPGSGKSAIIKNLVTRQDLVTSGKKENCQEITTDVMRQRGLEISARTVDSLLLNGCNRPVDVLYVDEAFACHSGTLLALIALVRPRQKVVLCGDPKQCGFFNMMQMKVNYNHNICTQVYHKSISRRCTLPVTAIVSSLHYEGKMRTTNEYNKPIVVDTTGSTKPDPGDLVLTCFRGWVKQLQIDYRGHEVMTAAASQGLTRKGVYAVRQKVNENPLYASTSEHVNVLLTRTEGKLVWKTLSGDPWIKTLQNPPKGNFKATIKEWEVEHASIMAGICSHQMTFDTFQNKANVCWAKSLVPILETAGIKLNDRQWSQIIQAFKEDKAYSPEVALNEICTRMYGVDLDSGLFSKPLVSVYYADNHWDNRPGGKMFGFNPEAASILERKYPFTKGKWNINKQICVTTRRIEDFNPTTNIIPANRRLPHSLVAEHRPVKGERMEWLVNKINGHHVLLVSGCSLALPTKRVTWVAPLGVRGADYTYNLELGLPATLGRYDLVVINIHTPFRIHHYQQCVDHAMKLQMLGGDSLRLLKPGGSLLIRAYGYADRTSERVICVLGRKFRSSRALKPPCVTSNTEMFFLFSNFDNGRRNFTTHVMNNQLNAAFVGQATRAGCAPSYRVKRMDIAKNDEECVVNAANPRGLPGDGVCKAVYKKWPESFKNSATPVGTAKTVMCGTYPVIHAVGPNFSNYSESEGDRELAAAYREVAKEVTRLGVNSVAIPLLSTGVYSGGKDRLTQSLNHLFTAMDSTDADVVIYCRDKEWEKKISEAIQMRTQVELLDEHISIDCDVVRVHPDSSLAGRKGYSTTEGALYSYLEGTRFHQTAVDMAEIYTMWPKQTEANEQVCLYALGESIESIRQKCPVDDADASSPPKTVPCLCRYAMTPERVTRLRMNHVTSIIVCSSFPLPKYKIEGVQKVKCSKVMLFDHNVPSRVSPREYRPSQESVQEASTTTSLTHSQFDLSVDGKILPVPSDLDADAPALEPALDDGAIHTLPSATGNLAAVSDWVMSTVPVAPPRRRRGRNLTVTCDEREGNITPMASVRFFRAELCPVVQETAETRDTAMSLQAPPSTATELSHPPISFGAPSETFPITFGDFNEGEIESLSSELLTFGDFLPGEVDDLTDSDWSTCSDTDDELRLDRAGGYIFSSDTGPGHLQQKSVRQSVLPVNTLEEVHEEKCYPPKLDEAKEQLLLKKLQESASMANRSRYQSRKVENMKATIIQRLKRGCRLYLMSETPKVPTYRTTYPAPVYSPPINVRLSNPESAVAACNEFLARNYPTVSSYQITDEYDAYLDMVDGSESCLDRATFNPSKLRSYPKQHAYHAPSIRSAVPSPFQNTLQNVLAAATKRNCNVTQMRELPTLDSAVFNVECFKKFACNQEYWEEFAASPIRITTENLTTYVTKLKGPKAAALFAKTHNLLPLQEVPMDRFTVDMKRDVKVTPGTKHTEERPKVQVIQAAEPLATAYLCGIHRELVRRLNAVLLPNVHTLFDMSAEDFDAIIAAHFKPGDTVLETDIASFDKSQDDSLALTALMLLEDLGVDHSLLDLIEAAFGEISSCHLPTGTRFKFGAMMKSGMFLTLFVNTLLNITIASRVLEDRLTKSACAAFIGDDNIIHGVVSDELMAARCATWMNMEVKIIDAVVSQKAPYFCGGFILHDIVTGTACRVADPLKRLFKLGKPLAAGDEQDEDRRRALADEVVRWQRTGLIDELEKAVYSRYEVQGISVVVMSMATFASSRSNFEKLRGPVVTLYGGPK
* marks the source's active call; other numbers are inactive results; i = inactive; ? = inconclusive; & = joins results of further samples; [ ] = another dose, or the depositor's remark. % is scaled to controls: 0 for no effect and ±100 for the full control effect; potency is read from the fitted curve at half-maximal effect.

canonical_smiles	nsP2pro primary
CC(CNC(=O)c1csc2c1CCCCC2)c1ccccc1 (centres undefined)	-7%
Cc1noc2c(N3CCOCC3)cc(-c3cccnc3)nc12	-1%[39.2 µM]
CC(c1ccc(-c2ccc(CC(=O)O)cn2)cc1)N1CCCCC1 (centres undefined)	-6%
O=C(c1ccc(Cl)cc1)N1CCCC2(CNc3ncccc3[S+](=O)([O-])N2)C1 (centres undefined)	?
O=C(NCC(=O)N1CCCCC1)Nc1ccc2nnsc2c1	13%
O=C(NCC(c1ccco1)S(=O)(=O)c1cccs1)c1ccccc1F (centres undefined)	?
COc1ccccc1CNC(=O)c1cnc2sc(N3CCOCC3)nn2c1=O	-14%
COc1cc(CNCCC(C)C)ccc1OCC(O)CN1CCSCC1 (centres undefined)	0%
COc1ccc(CN(CCC(c2ccc3c(c2)OCO3)c2ccccc2OC)C(C)=O)cc1 (centres undefined)	?
COC(=O)c1c(CC=C(C)C)c(OC2OC(CO)C(O)C(O)C2O)c2ccccc2c1OC1OC(CO)C(O)C(O)C1O (centres undefined)	7%[10 µM]
Cn1ncc(CN2CC[C@@H](c3ccc4c(c3)OCO4)[C@H](O)C2)c1C1CC1	5%
OC[C@H]1O[C@@H](OCCc2ccccc2)[C@H](O)[C@@H](O)[C@@H]1O	83%[activator]
C[C@@H]1C(=O)O[C@H]2CC34[C@H]5C[C@@H](C(C)(C)C)C36[C@@H](OC(=O)[C@@H]6O)O[C@@]4(C(=O)O5)[C@]21O (some centres undefined)	-2%[10 µM]
Cc1cc(C)nc(NS(=O)(=O)c2ccc(NC(=O)COc3ccc(Cl)cc3C)cc2)n1	-9%
Cc1onc(-c2c(Cl)cccc2Cl)c1CC(=O)NCc1ccc(OCC(F)(F)F)nc1	-3%
CN1CCCC1CCNc1ncnc2ccc(-c3ccc4c(c3)OCO4)cc12 (centres undefined)	i
Cc1ccc(Cl)cc1NC(=O)NCc1cccn1Cc1ccc(F)cc1	-19%
COCCN(CCOC)c1nc(C)nc2c1nc(-c1ccccc1)n2CCN1CCOCC1	-7%
Cc1ccc2c(=O)n(-c3cccc(Cl)c3)c(=O)[nH]c2c1	-8%
C=CC(=O)Nc1cc(Nc2nccc(-c3cn(C)c4ccccc34)n2)c(OC)cc1N(C)CCN(C)C	-29%&138%

Remaining list, next part.
canonical_smiles	nsP2pro primary
CCc1nc(-c2c3n(c(=O)n(CC(=O)NC4CCCC4)c2=O)CCCCC3)no1	0%
O=C(NCCC1=CCCCC1)c1ccc2c(c1)N(Cc1cccc(Cl)c1)C(=O)c1ccccc1S2=O (centres undefined)	-12%
Cc1noc(/C=C/c2ccccc2F)c1S(=O)(=O)N1CCC(C(=O)N(C)Cc2ccco2)CC1	?
COc1c2c(c(C)c3c1C(=O)OC3)O[C@@]1(C)C[C@@H](O)[C@]34O[C@](OC)(CC[C@]3(C)[C@H]1C2)OC4(C)C	?
Cc1ncc2c(c1CNC(=O)CC(C)c1ccccc1)CCNC2 (centres undefined)	-4%
CN(CC(=O)Nc1ccc(N2CCOCC2)cc1)Cc1c(O)ccc2ccccc12	?
CC(C)CC1NC(=O)C(C(C)c2ccccc2)NC(=O)C(C(C)C)NC(=O)C(C)NC(=O)CCCNC(=O)C(Cc2c[nH]c3ccccc23)NC(=O)C(C)NC1=O (centres undefined)	31%[10 µM]
CN1CCN(C(c2ccc(F)cc2)c2sc3nc(-c4ccco4)nn3c2O)CC1 (centres undefined)	?
Cc1csc(-c2nnc(Nc3ccc(Oc4ncccc4-c4ccnc(N)n4)cc3)c3ccccc23)c1	-27%
COc1ccc(/C=C/C(=O)O[C@@H]2[C@@H](O)[C@H](C)O[C@@H](OC3C4C=COC(O[C@@H]5O[C@H](CO)[C@@H](O)[C@H](O)[C@H]5O)C4C4(CO)OC34)[C@@H]2O)cc1OC (some centres undefined)	?
CN1Cc2ncnc(N3CCC(c4ccccc4)CC3)c2CN(c2ccccc2)C1=O	i
COc1ccc(C(=O)N2CCC3(CC2)OCC(C(=O)NC2CC2)N3C(=O)c2cccc(C)c2)cc1 (centres undefined)	5%
COc1ccccc1CN[C@H]1[C@H](O)[C@@H](N2CCN(c3ccccc3OC)CC2)[C@@H]2OC[C@H]1O2	2%
Cc1cc(C#N)c(-c2ccccc2C(=O)N(C(C)C)C(C)C)nc1C	i
O=C(NC1CCCCCC1)c1ccc2c(c1)CC(=O)N2Cc1cccc(F)c1	i
CCCSc1nnc2c(n1)OC(c1cccs1)Nc1ccc(Br)cc1-2 (centres undefined)	-15%
C[C@H]1CN(S(=O)(=O)c2c(F)cccc2F)CCN1S(=O)(=O)c1ccc2c(c1)OCCO2	-5%
CCCSc1ncc(Cl)c(C(=O)N(Cc2ccc(Cl)cc2)Cc2ccco2)n1	37%[activator]
COC1CCC12CCN(Cc1ccc(C)s1)CC2 (centres undefined)	i
Cc1nc2ncnn2c(C)c1CCC(=O)N1C[C@@H](N)C[C@H]1C(=O)NC(C)C	1%

Other entries follow.
canonical_smiles	nsP2pro primary
CCOc1ccc(NC(=O)C2CCN(S(=O)(=O)c3c(C)noc3/C=C/c3cccs3)CC2)cc1	-23%
COc1ccc(CCNC(=O)c2cc3c(=O)[nH]c4ccc(C)cc4c3s2)cc1OC	-2%
Cc1ccc(-c2nc3nc(C)cc(N4CCN(c5cc(Cl)ccc5C)CC4)n3n2)cc1	-16%
COc1ccc(-n2c(C)c(C(C)=O)c3ccccc32)cc1	-4%&-13%
Cc1cc(C)c2oc(-c3cccc(NC(=O)c4cccc(F)c4)c3C)nc2c1	-7%
CCC1Oc2ccc(NS(=O)(=O)c3ccc(Cl)cc3)cc2CN(Cc2ccc(F)cc2)C1=O (centres undefined)	-11%
COc1ccc(NC(=O)Cn2nc(-c3ccccc3)c3cnc4ccc(C)cc4c32)cc1	-16%
NC(=O)C1CCN(c2nc(-c3ccc(Br)cc3)cs2)CC1	i
CC1=C(CC(=O)O)c2cc(F)ccc2C1=Cc1ccc(S(C)(=O)=O)cc1	?
O=C(CCn1cnnn1)Nc1cc(C(F)(F)F)cc(C(F)(F)F)c1	-26%
Fc1ccc([C@@H]2CCNC[C@H]2COc2ccc3c(c2)OCO3)cc1	22%&2%
Cc1ccccc1NC(=O)CSC1=Nc2ccccc2C2=NC(CCC(=O)NCc3ccccc3)C(=O)N12 (centres undefined)	-19%
COc1ccccc1CN1CCN(C2CCN(C(=O)NC(C)C)CC2)C(=O)C1=O	-23%
COC(=O)c1ccc(O)c2ncc(N3CCN(C)CC3)cc12	i
COc1ccc(-c2noc(CC3CCN(C(=O)c4cc(F)ccc4F)CC3)n2)cc1	1%
CO[C@@H]1[C@H](O)[C@@H](O[C@@H]2C[C@H]3CC[C@@H]4C(CC[C@]5(C)[C@@H](C6=CC(=O)OC6)CC[C@]45O)[C@@]3(C)[C@H](O)C2)O[C@H](C)[C@@H]1O[C@@H]1O[C@H](CO)[C@@H](O)[C@H](O)[C@H]1O (some centres undefined)	?
CC1(C(=O)NC2CC2)CCCc2cnc(Nc3cccnc3)nc21 (centres undefined)	2%[39.2 µM]
CC(C)(C)OC(=O)N1CCN(c2ccc(NCc3ccc(-c4cc(C(F)(F)F)cc(C(F)(F)F)c4)o3)cc2)CC1	2%
COc1cc(-c2nnc(SCC(=O)N3CCCc4ccccc43)o2)cc(OC)c1OC	-7%
Cc1noc(-c2ccc(-c3noc(-c4ccc([N+](=O)[O-])c(C)c4)n3)cc2)n1	-14%

By substructure, those above with a thiophene ring, fused or not (7)
canonical_smiles	nsP2pro primary
CC(CNC(=O)c1csc2c1CCCCC2)c1ccccc1 (centres undefined)	-7%
O=C(NCC(c1ccco1)S(=O)(=O)c1cccs1)c1ccccc1F (centres undefined)	?
Cc1csc(-c2nnc(Nc3ccc(Oc4ncccc4-c4ccnc(N)n4)cc3)c3ccccc23)c1	-27%
CCCSc1nnc2c(n1)OC(c1cccs1)Nc1ccc(Br)cc1-2 (centres undefined)	-15%
COC1CCC12CCN(Cc1ccc(C)s1)CC2 (centres undefined)	i
CCOc1ccc(NC(=O)C2CCN(S(=O)(=O)c3c(C)noc3/C=C/c3cccs3)CC2)cc1	-23%
COc1ccc(CCNC(=O)c2cc3c(=O)[nH]c4ccc(C)cc4c3s2)cc1OC	-2%

(cont.)
canonical_smiles	nsP2pro primary
Cc1[nH]c2ccccc2c1C(=O)C(=O)NC1CC(=O)N(c2cccc(F)c2)C1 (centres undefined)	-22%
O=C(Nc1ccc(Cl)c(Cl)c1)Nc1ccnc(-c2ccncc2)n1	i
Cc1nc(C)c(C(=O)N2CCC(C(=O)N3CCCCCCNC(=O)CC3)CC2)s1	0%
Cc1ccccc1-c1nnc(CN2CCN(c3ccccn3)CC2)o1	?
O=C(/C=C/c1ccc(O)c(O)c1)O[C@@H]1[C@@H](O)[C@H](OC2CCCCC2O)O[C@H](CO)[C@H]1O (some centres undefined)	-16%[10 µM]
O=C(Nc1ccccc1)c1cccs1	32%[activator]
O=C(CCCc1ccc(F)cc1)N[C@@H]1CCOC[C@H]1Oc1ccccn1	-3%
CC(=O)NC(C)c1cc(Cl)c2cccnc2c1O (centres undefined)	i
Cc1cc2c(s1)c1cnn(Cc3c(F)cccc3C(F)(F)F)c(=O)c1n2C	-6%
CCN1CCN(c2cc(C)c3cc(NC(=O)c4cc(Cl)ccc4OC)ccc3n2)CC1	37%[activator]
N#Cc1cc(NC(=O)C(=O)O)c(Cl)c(NC(=O)C(=O)O)c1	-6%
O=C(CSc1ccncc1)N1CCN2C(=O)N(Cc3ccccc3)C(=O)[C@H]2C1	i
NC(Cc1c[nH]c2ccccc12)C(=O)O (centres undefined)	-4%
COc1ccccc1NC(=O)Cn1c(=O)n(Cc2ccccc2)c(=O)c2sc3ccccc3c21	-27%
COCCN(CCOC)c1nc(C)nc2c1nc(-c1ccccc1)n2CC1CCN(C)CC1	-1%
CC(=O)c1cccc(NC(=O)Cn2c(=O)oc3cc(S(=O)(=O)NC4CCCC4)ccc32)c1	-6%
Cc1cc(C)cc(NC(=O)c2cc(CN3CCCC3)on2)c1	-17%
CCC1CN(C(=O)c2ccc(NCc3cnn(CC)c3)nc2)CCN1C(C)C (centres undefined)	1%
CCOC(=O)C1CCN(C(=O)c2ccc3c(=O)n4nc(Nc5cc(C)ccc5C)sc4nc3c2)CC1	-4%
C=C(C)C1=C[C@@]2(C)C(=CC1=O)CC[C@@H](O)[C@@H]2C	-10%

The list goes on:
canonical_smiles	nsP2pro primary
CC(C)c1nn2c(=O)cc(COC(=O)c3ccco3)nc2s1	13µM*
O=C(C[C@@H]1CCNC[C@@H]1Cc1cc(CN2CCCCC2)on1)N1CCN(c2ccccc2)CC1	i
CCC(O)CNC(=O)c1cn2cc(-c3ccc(F)cc3)n(CC=C(C)C)c(=O)c2n1 (centres undefined)	i
O=C(COc1ccccc1)Nc1sc2c(c1C(=O)Nc1ccccc1)CCCCC2	-83%
Cc1ccc(OCCn2c(CCNC(=O)c3cc([N+](=O)[O-])ccc3[N+](=O)[O-])nc3ccccc32)cc1	i
O=C(O)c1cccc(-c2noc(-c3ccc(C(F)(F)F)cc3)n2)c1	-2%
Brc1cccc(-c2nnn3c2nc(NCc2ccc4c(c2)OCO4)c2ccccc23)c1	-14%
CC(C)c1nc(N(C)S(C)(=O)=O)nc(-c2ccc(F)cc2)c1/C=C/C(O)CC(O)CC(=O)O (centres undefined)	-10%
COc1ccc(OC)c(NC(=O)CN(C)S(=O)(=O)c2ccc(C(=O)N3CCOCC3)s2)c1	-16%
CCCCN1CC(c2nc3ccccc3n2CCCCOc2cc(C)cc(C)c2)CC1=O (centres undefined)	-11%
OC/C=C/C=C/[C@H]1Cc2cc(O)cc(O)c2O1	59%[activator]
CC(C)(C)c1cnc([C@@H]2COCCN2C2CCCCC2)[nH]1	i
O=C(C(c1ccccc1)c1ccccc1)N1CCN(CC(O)COc2cccc3ncccc23)CC1 (centres undefined)	1%
COC(=O)c1ccc(O)c2ncc(-c3ccc(C(=O)NCCCN(C)C)cc3)cc12	i
C#Cc1cccc(Nc2ncnc3cc(OCCOC)c(OCCOC)cc23)c1	7%&51%&44%
O=C(Nc1ccccc1F)c1nc(SCc2ccc(F)cc2)ncc1Cl	-1%
CNC(=O)[C@@H]1CN(C(=O)Cn2nc(C(F)(F)F)cc2C)C[C@H]1CO	0%
COc1ccc(-c2ccc(-c3noc(-c4cc(OC)cc(OC)c4)n3)c(OC)n2)cc1	?
Cc1cccc(Oc2cnc(=O)[nH]c2)c1	-3%
O=C(CNC(=O)c1ccc(-c2ccccc2)cc1)OC(C(=O)Nc1cc(C(F)(F)F)ccc1Cl)c1ccccc1 (centres undefined)	-4%

More structures:
canonical_smiles	nsP2pro primary
O=C1N(Cc2ccccc2F)CCOC12CCN(Cc1ccc(F)cc1F)CC2	4%[39.2 µM]
CC(C)CN1CCc2[nH]cnc2C12CCN(C(=O)c1n[nH]c3c1CCC3)CC2	2%
CC(C)Cn1c(-c2ccccc2Cl)nc2ccccc21	-14%
O=C(Nc1cccc(Br)c1)c1cccc(S(=O)(=O)N2CCCCCC2)c1	4%
Cc1ccc(-c2nnc(Nc3ccc(Br)cc3)c3ccccc23)cc1S(=O)(=O)N1CCN(C)CC1	-14%
COC(=O)c1c(NC(=O)c2cc(=O)c3cc(C)cc(C)c3o2)sc2c1CCC2	-22%
COc1ccc2[nH]c(=O)c(CCC(=O)NC(C)c3cn(C)nc3C)cc2c1 (centres undefined)	4%
COCCOc1cnc2ccn([C@H](C)c3nnc4c(F)cc(-c5cnn(C)c5)cn34)c(=O)c2c1	?
COc1ccccc1CNC(=O)c1cccc(N2CCCS2(=O)=O)c1	-8%

The list is partial; count on the stated rates, not on these rows.
